Screens as filed in PubChem BioAssay.
RE007 growth inh: less growth of the S. pombe RE007 Vpr strain. S. pombe RE007 Vpr strain, BacTiter-Glo ATP luminescence, 24 h; control for the full effect not named in the record. Potency, µM (titrated, usually from 92.2 µM), for the others: top-dose activity change, negative = less growth. 360,000 compounds, 0.21% hits. AID 651644; active = well fitted falling curve with a large enough effect; inconclusive = small, poorly fitted or top-dose-only effect; inactive = no such curve, though single readings can be large or run the other way;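 further: on the % scale 0 is the no-effect control and ±100 the full control effect; nearly all actives have a fitted effect of over 50% in size; the assay follows cell death caused by Vpr and the record does not say whether a fall means rescue or toxicity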
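Fission yeast strain RE007, carrying one chromosomally integrated HIV-1 vpr copy, was seeded at OD 0.01 in PMG+AL medium with 23 nL pinned compound. After 24 h at 30 °C and 99% humidity, viability was read by BacTiter-Glo luminescence.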
SARS PLpro yeast: blocks SARS-CoV papain-like protease in a yeast assay. S. cerevisiae expressing SARS-CoV PLpro, growth rescue; control for the full effect not named in the record. AID 485353. Potency, µM (titrated, usually from 32.9 µM), for inactives: at the highest dose activity, positive = growth rescue. 330,000 compounds, 0.19% hits; active means well fitted rising curve with a large enough effect; inconclusive means small, poorly fitted or top-dose-only effect; inactive means no such curve, though single readings can be large or run the other way; further: 0% is about no effect; nearly all actives have a fitted effect of over 55% in size; growth read by luminescence after 48 h
Cruzain inh Det: inhibitors of Trypanosoma cruzi cruzain with detergent | Potency, µM, for the others: max response, negative = inhibition, most hits filed as inhibitors | AID 1478 | 200,000 compounds, 0.43% hits | P25779 | purified cruzain, Z-FR-AMC fluorescence, 0.01% Triton;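 further: plate controls were neutral wells for no effect and buffer without enzyme for full effect; nearly all actives have a fitted effect of over 40% in size; top concentration of the series not given in the record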
Target sequence (P25779 123-467 limits assumed): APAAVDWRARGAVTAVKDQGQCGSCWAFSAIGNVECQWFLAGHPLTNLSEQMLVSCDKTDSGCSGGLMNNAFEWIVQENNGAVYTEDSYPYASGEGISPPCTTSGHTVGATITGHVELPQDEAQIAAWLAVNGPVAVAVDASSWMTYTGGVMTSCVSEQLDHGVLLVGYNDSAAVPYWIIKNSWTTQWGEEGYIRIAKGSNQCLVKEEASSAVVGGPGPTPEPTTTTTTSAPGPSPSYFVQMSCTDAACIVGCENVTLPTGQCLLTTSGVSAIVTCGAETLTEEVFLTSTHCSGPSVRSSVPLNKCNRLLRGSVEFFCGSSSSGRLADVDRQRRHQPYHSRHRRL
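Sodium acetate buffer (100 mM, pH 5.5) containing 5 mM DTT and 0.01% Triton X-100 hosted 1.5 nM cruzain and test compound for 15 min at room temperature. Cleavage of 2 uM Z-FR-AMC was then tracked by fluorescence.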
Cruzain noTriton: blocks cruzain activity in detergent-free assay; P25779; 200,000 compounds, 2.3% hits; purified cruzain, Z-FR-AMC fluorescence, no detergent; Potency, µM, without a hit: max response, negative = inhibition, most hits filed as inhibitors;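 further: plate controls were enzyme without inhibitor for no effect and buffer without enzyme for full effect; nearly all actives have a fitted effect of over 40% in size; top concentration of the series not given in the record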
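Detergent-free condition (0.00005% Triton X-100) in acetate buffer pH 5.5 with DTT. 1.5 nM enzyme and compound were pre-mixed 15 min, then 2 uM Z-FR-AMC substrate added; reaction progress from fluorescence change between first and third reads (60 s).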
StopGo reporter: FMDV 2A StopGo reporter, luciferase signal. AID 1159524. Potency, µM (highest dose often 57.9 µM), for the others: at the highest dose signal change, negative = less light. 410,000 compounds, 1.2% hits. human cells with a luciferase reporter of 2A StopGo recoding; control for the full effect not named in the record; active = well fitted falling curve with a large enough effect; inconclusive = small, poorly fitted or top-dose-only effect; inactive = no such curve, though single readings can be large or run the other way; tested in HEK293T cells; further: on the % scale 0 is the no-effect control and ±100 the full control effect; nearly all actives have a fitted effect of over 45% in size; luciferase light after 4 h
MARV entry inh: blocks Marburg virus binding to or entry into cells; Marburg virus pseudotyped entry inhibition, cell reporter; control for the full effect not named in the record; about a third of the inactives were read at about 46 µM; Potency, µM (doses to about 37.8 µM), for the others: at the highest dose activity change, negative = inhibition, usual class: inhibitors; 300,000 compounds, 1.8% hits; active = well fitted inhibition curve with a large enough effect; inconclusive = small, poorly fitted or top-dose-only effect, or effect the other way; inactive = flat fitted curve, though single readings scatter; tested in HEK293 cells; about a fifth of its hits are not listed in these tables; further: on the % scale 0 is the no-effect control and ±100 the full control effect; luciferase read-out
Lassa entry inh: inhibitors of Lassa virus binding or cell entry | Lassa virus pseudotype entry inhibition, cell reporter; control for the full effect not named in the record | 300,000 compounds, 1.2% hits | Potency, µM (series often up to 37.9 µM), for the others: at the top dose activity change, negative = inhibition, hits mostly inhibitors; active means well fitted inhibition curve with a large enough effect; inconclusive means small, poorly fitted or top-dose-only effect, or effect the other way; inactive means flat fitted curve, though single readings scatter; tested in HEK293 cells; further: on the % scale 0 is the no-effect control and ±100 the full control effect; nearly all actives have a fitted effect of over 50% in size; luciferase read-out
NS1 function inh: influenza NS1 inhibition | S. cerevisiae slowed by influenza A NS1, growth recovery by OD600 | Potency, µM (titrated, usually from 46.1 µM), without a hit: at the top dose activity, positive = more growth | 270,000 compounds, 0.4% hits; active means well fitted rising curve with a large enough effect; inconclusive means small, poorly fitted or top-dose-only effect; inactive means no such curve, though single readings can be large or run the other way; further: nearly all actives have a fitted effect of over 50% in size
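Read-out: OD600 growth recovery of NS1-expressing budding yeast. Cells grown overnight at 30C in -URA glucose medium, washed, resuspended and diluted 1:100 in 2% galactose assay medium, pH 6.0. Same strain lacking NS1 served as positive control.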
Numbers without * were called inactive; ? = inconclusive; . = not tested or not shown; & = joins results of further samples; [ ] = another dose, or the depositor's remark. Unless noted, the call rests on the fitted dose curve; in most records, active means well fitted curve in the direction sought with a large enough effect; inconclusive means small, poorly fitted or top-dose-only effect, or another doubt; inactive means no such curve, though single readings can be large; an effect the other way counts as inactive or inconclusive. Potency means the concentration at half of the fitted maximal effect.

SMILES	RE007 growth inh	SARS PLpro yeast	Cruzain inh Det	Cruzain noTriton	StopGo reporter	MARV entry inh	Lassa entry inh	NS1 function inh
Cn1c(=O)c2c(SCC(=O)NCc3ccc(F)cc3)nc(-c3ccccc3Cl)nc2n(C)c1=O	.	.	4.5%	-7%	-21%	.	6%[46.1 µM]	.
CCN(C(=O)c1c(N)cnn1C)c1ccccc1	-3%	3%	.	.	-10%	2%[46.1 µM]	2%	.
O=C(O)CC(NS(=O)(=O)c1ccc(Br)s1)c1ccccc1 (stereo unspecified)	.	.	-2.3%	3%	7%	.	-1%[46.1 µM]	.
O=C(NCCN1CCOCC1)NC1(C(F)(F)F)Oc2ccc(Cl)cc2O1 (stereo unspecified)	0%	-2%	0.1%	-7%	0%	?	?	-5%
Cn1/c(=N/N=C/c2ccc([N+](=O)[O-])cc2)sc2ccccc21	.	1%	7.5%	13%	.	2%	.	10%
Cc1noc(C)c1C1(O)CCCCCCCCCCC1	13%	3%	-7.5%	19%	0%	?	-28%	3%
Cc1ccc(C)c(NC(=O)Cn2c(-c3nonc3N)nc3ccccc32)c1	.	.	-1.4%	3%	-7%	?	8%[46.1 µM]	.
O=C(COc1coc(CN2CCN(c3ccccc3)CC2)cc1=O)Nc1cccc(F)c1	-18%	-5%	.	.	-19%	-5%	-2%	.
CN(c1cccc(NC(=O)Nc2cccc(Cl)c2)c1)S(C)(=O)=O	-28%	1%	0.1%	10%	?	-28%	?	-3%
Cc1cccc(NC(=O)c2ccc(-n3cncn3)c([N+](=O)[O-])c2)c1	12%	-3%	.	.	4%	24%	19%	.
CCOc1cc(/C=N/NC(N)=O)cc(Br)c1OCC(=O)Nc1cccc2ccccc12	-6%	5%	-3.2%	6.3µM*	?	-17%	-21%	8%
O=C(NCN1C(=O)C2C3C=CC(C3)C2C1=O)Nc1cccnc1 (stereo unspecified)	2%	3%	1.1%	3%	-10%	3%	11%	2%
O=C(O)c1cc(S(=O)(=O)N2CC3CC3C2C(=O)O)c(Cl)cc1Cl (stereo unspecified)	-9%	2%	.	.	14%	-31%[46.1 µM]	16%[46.1 µM]	10%
O=C(CN1CCN(Cc2cccc(Cl)c2)C1=O)NCc1ccc(F)cc1	.	.	1.6%	-14%	-10%	.	9%[46.1 µM]	.
CCCn1c(C(O)c2cc(OC)ccc2OC)nc2ccccc21 (stereo unspecified)	-10%	-1%	-2.4%	-6%	-18%	11%	4%	-30%
CCOc1ccccc1N1C(=O)CC(Nc2ccc(N3CCOCC3)cc2)C1=O (stereo unspecified)	10%	6%	-5.1%	-2%	-4%	15%	-11%	?
N#C/C(=C\c1ccc(Cl)cc1)c1nc(-c2cc3ccccc3oc2=O)cs1	.	.	-0.7%	0%	-3%	.	0%[46.1 µM]	.
CCOC(=O)c1c(NC(=O)CSc2ncn[nH]2)sc(C(=O)NC)c1C	-6%	2%	.	.	-7%	22%[46.1 µM]	9%[46.1 µM]	-14%
Cc1ccc(/C=C/C(=O)O)cc1S(=O)(=O)NCCO	25%	4%	5.5%	-2%	-14%	7%	1%	3%
CN(Cc1ccccc1)S(=O)(=O)c1ccc(NC(=O)c2cc(=O)c3ccccc3o2)cc1	.	.	-5.3%	?	-12%	-1%[46.1 µM]	-6%[46.1 µM]	.
Cc1nc2nc(C)c(NS(=O)(=O)c3ccc(F)cc3)c(=O)n2[nH]1	.	.	0.8%	-7%	-11%	20%[46.1 µM]	-3%[46.1 µM]	.
Cc1c(Cc2ccc3c(c2)OCO3)sc(NC(=O)C2CC2)c1C(N)=O	-14%	-2%	.	.	?	7%[46.1 µM]	8.9µM*	-7%
Cc1cc(C)n2c(Nc3ccccc3)c(-c3ccccc3)nc2n1	.	.	-5.7%	7%	0%	-11%[46.1 µM]	-10%[46.1 µM]	.
CCN(CC)S(=O)(=O)c1cccc(C(=O)OC2CC(C)OC2=O)c1 (stereo unspecified)	-8%	8%	.	.	5%	-11%	2%	20%
O=C(CCc1nnc2ccc(NCc3ccc(F)cc3)nn12)N1CCC2(CC1)OCCO2	-1%	?	.	.	27%	.	.	-1%

(listing goes on)
SMILES	RE007 growth inh	SARS PLpro yeast	Cruzain inh Det	Cruzain noTriton	StopGo reporter	MARV entry inh	Lassa entry inh	NS1 function inh
CCOC(=O)N1CCN(C(=O)COC(=O)c2cccc(S(C)(=O)=O)c2)CC1	-16%	-2%	.	.	-2%	14%[46.1 µM]	-2%	.
COc1ccc(N2CCC(N3CCN(C)C(CCO)C3)CC2)cc1 (stereo unspecified)	2%	-5%	.	.	1%	.	.	8%
CS(=O)(=O)c1ccc(Cl)c(NC(=O)Cc2c(F)cccc2Cl)c1	21%	0%	.	.	2%	-25%[46.1 µM]	6%[46.1 µM]	4%
COCCn1c(SCC(=O)N2CCc3ccccc3C2)nc2ccccc2c1=O	0%	13%	-4.3%	3%	-4%	-26%	-8%	-11%
CC(=O)Nc1ccc(S(=O)(=O)Nc2nnc(C(C)(C)C)s2)cc1	2%	?	-1.6%	-2%	18%	7%	9%	4%
CCOc1ccc(OCC)c(NC(=O)CN(c2ccc(C)cc2)S(=O)(=O)c2c(C)n[nH]c2C)c1	.	.	-11%	?	-27%	?	?	.
CC(=O)C1=C(C)NC(SCC(=O)c2ccc(Cl)cc2Cl)=C(C#N)C1c1ccco1 (stereo unspecified)	5%	-1%	-10%	32µM*	.	-27%	?	0%
O=C(Nc1ccc2c(c1)COC2=O)c1ccc(Cl)c(Cl)c1	-11%	-3%	.	.	-2%	20%[46.1 µM]	13%[46.1 µM]	-17%
CCO[C@@H]1OC(C(=O)NCc2nc3ccccc3[nH]2)=C[C@H](c2cn(C(C)=O)c3ccccc23)[C@H]1CCCO	-14%	1%	.	.	0%	.	.	-5%
C/C(=N\NC(=O)CSc1nnc(C)s1)c1ccc(Cl)cc1	10%	-10%	2.1%	-1%	-11%	0%	-5%	-4%
Cc1ccc(SCC(=O)OCC(=O)N(CC(C)C)c2c(N)n(Cc3ccccc3)c(=O)[nH]c2=O)cc1C	-23%	-2%	.	.	-4%	?	?	.
CCOC(=O)c1cccc(NC(=O)C2CCC(CNc3c(N4CCOCC4)c(=O)c3=O)CC2)c1 (stereo unspecified)	6%	2%	-6.7%	-3%	-7%	-3%	.	-24%
O=S(=O)(c1ccc(F)cc1)N1CCC(c2nc3ccccc3[nH]2)CC1	?	4%	.	.	-27%	-22%[46.1 µM]	-16%	2%
CC(=O)Oc1ccc(N(C(C)=O)S(=O)(=O)c2ccc3ccccc3c2)cc1Br	1%	-4%	.	.	27%	.	.	-43%
CC(C)(Oc1ccc(Cl)cc1)C(=O)N1CCN(C(=O)c2ccco2)CC1	-11%	-1%	.	.	-10%	-17%[46.1 µM]	1%[46.1 µM]	0%
CCNC(=O)COc1ccc2ccccc2c1	-5%	-14%	1.7%	-9%	55%[activator]	26%	-2%	-9%
O=S(=O)(c1ccc(Cl)c(C(F)(F)F)c1)N1CCN(CC(O)COCC2CCCO2)CC1 (stereo unspecified)	-5%	?	-10.0%	2%	-6%	2%&2%	-8%	-1%
COc1ccc(CNC(=O)C2CCC(CNS(=O)(=O)c3ccc(C)cc3)CC2)cc1 (stereo unspecified)	-9%	0%	.	.	1%	.	.	1%
Cc1ccc(-c2nnc(CSc3nc(C)nc4sc(C)c(C)c34)o2)cc1	1%	11%	-1.2%	3%	.	3%	9%	-16%
CC(C(=O)NCC1(c2ccccc2)CCCC1)N1CCOCC1 (stereo unspecified)	10%	3%	3.8%	10%	-3%	-3%	12%	2%
COc1cccc(-c2nc(=S)c3c(n2Cc2ccco2)CCCC3)c1	-19%	0%	-7.9%	-25%	-21%	-27%	?	0%
c1ccc2c(c1)Nc1nccnc1S2	-4%	-21%	-23%	-30%	65%[activator]	?	?	-2%
O=C(CSc1nc2[nH]ncc2c(=O)[nH]1)N1CCCCC1	4%	17%	2.4%	-3%	-12%	?	5%	-8%
O=C(CNCc1ccccn1)N1CCc2ccccc2C1	-8%	-2%	.	.	9%	18%[46.1 µM]	19%	-1%
O=C(Nc1cccc(F)c1)C1CCN(C(=O)N2CCOc3ccccc32)CC1	-4%	-1%	.	.	-26%	.	.	-3%
CCOc1ccc(CNC(=O)c2ccc(Sc3ccc(C)cc3)c(N)c2)cc1OC	.	.	0.0%	7%	?	.	?	.
CCOC(=O)C1=C(C)NC(C)=C(C(=O)OCC)C1c1ccc(OC)cc1	-13%	13%	-12%	?	-18%	-21%	?	-3%
CC(=O)C1=C(O)C(=O)N(c2nccs2)C1c1ccc(F)cc1 (stereo unspecified)	-21%	-5%	-6.4%	-2%	-5%	5%	-5%	-5%
Cc1cccc(-n2c(CCn3nc(C)c([N+](=O)[O-])c3C)n[nH]c2=S)c1	-7%	2%	0.7%	5%	-6%	4%	-22%	-4%
CCOC(=O)Cn1c(=O)oc2cc(S(=O)(=O)Nc3ccccc3F)ccc21	.	.	2.4%	-10%	5%	19%[46.1 µM]	4%[46.1 µM]	.

Three compounds from above, reduced to Cruzain noTriton, Cruzain inh Det and StopGo reporter.
structure,Cruzain noTriton,Cruzain inh Det,StopGo reporter
CCO[C@@H]1OC(C(=O)NCc2nc3ccccc3[nH]2)=C[C@H](c2cn(C(C)=O)c3ccccc23)[C@H]1CCCO,.,.,0%
C/C(=N\NC(=O)CSc1nnc(C)s1)c1ccc(Cl)cc1,-1%,2.1%,-11%
Cc1ccc(SCC(=O)OCC(=O)N(CC(C)C)c2c(N)n(Cc3ccccc3)c(=O)[nH]c2=O)cc1C,.,.,-4%
